# Screening results: PubChem BioAssay, Broad Institute
# ALR inh: inhibitors of human sulfhydryl oxidase ALR; P55789; AID 485317; purified ALR, DTT oxidation, H2O2 HRP-luminol luminescence; inhibition, % (concentration not given with the values); 290,000 tested, 3.8% active;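 active = mean and each replicate at 75% or more; inconclusive = only one of the two met; inactive = neither met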;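 also: stock transfer was 7.5 nL into about 7.5 µL; 0% = neutral wells and 100% = wells with inactivated enzyme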
# Target sequence (P55789 whole entry, looked up): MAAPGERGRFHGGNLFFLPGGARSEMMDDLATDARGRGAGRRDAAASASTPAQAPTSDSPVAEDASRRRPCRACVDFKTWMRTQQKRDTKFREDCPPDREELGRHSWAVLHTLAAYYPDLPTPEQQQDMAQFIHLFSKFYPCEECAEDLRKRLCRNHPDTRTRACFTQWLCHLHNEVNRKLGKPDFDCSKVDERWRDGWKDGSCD
# RanGTP-Impb inh: inhibitors of RanGTP-importin-beta interaction, primary screen, biochemical, FRET, CFP-Ran, YFP-importin-beta, homogeneous | cell-free CFP-Ran/YFP-importin-beta FRET ratio | inhibition, % (no concentration beside the values) | 300,000 tested, 1.1% active | AID 2216;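 active = most replicates above 15%; inconclusive = exactly half above 15%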;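 also: 0% = DMSO wells and 100% = Ran loaded with GDP instead of GTP; wells of about 40 µL received 100 nL stock; the first replicate is given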
# FGF22 binding: shifts melting point of recombinant human FGF22; AID 651658; calls only at 9.99 µM; recombinant FGF22 thermal shift, SYPRO orange fluorescence; percent of sucrose octasulfate shift, DMSO zero; Q9HCT0; 340,000 tested, 1.5% active;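 active = melting point raised past a set limit in the mean and every replicate; inconclusive = no clear call; three in four hits are not shown here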
# Target sequence (Q9HCT0 whole entry, looked up): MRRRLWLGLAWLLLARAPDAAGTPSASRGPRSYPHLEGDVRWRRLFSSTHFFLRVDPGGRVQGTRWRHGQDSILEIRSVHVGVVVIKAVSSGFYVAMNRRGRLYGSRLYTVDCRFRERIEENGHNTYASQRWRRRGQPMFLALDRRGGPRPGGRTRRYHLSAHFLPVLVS
# T cruzi repl: T. cruzi replication inhibition | 300,000 tested, 1.4% active | inhibition, % (test concentration not listed) | T. cruzi beta-gal in NIH3T3, luminescence, 90 h;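 active = mean inhibition across valid replicates above about 55%, limit read from the data; inconclusive = mean below that limit but half or more replicates reach it; inactive = mean below it, under half of replicates reach it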;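 also: signal also drops with host cell toxicity which is not excluded here; 0% = plate median of DMSO wells and 100% = zero luminescence signal; higher percent means less beta-gal luminescence so fewer parasites; stock transfer was 50 nL into about 50 µL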
# MLL AF4-AF9 inh: MLL-AF4/AF9 protein interaction inhibition; AlphaScreen, biotin-AF4 peptide binding to FLAG-AF9; P42568; 350,000 tested, 0.47% active; inhibition, % at 10 µM;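 active = every replicate reaching a set inhibition limit, whatever the replicate mean, cut at about 25% in these data; inconclusive = mean inhibition reaches that limit but some replicates miss it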;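 also: 0% = plate neutral control median and 100% = total signal loss; the record names both 10 and 1 µM as test concentration; the first replicate is given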
# Target sequence (P42568 whole entry, looked up): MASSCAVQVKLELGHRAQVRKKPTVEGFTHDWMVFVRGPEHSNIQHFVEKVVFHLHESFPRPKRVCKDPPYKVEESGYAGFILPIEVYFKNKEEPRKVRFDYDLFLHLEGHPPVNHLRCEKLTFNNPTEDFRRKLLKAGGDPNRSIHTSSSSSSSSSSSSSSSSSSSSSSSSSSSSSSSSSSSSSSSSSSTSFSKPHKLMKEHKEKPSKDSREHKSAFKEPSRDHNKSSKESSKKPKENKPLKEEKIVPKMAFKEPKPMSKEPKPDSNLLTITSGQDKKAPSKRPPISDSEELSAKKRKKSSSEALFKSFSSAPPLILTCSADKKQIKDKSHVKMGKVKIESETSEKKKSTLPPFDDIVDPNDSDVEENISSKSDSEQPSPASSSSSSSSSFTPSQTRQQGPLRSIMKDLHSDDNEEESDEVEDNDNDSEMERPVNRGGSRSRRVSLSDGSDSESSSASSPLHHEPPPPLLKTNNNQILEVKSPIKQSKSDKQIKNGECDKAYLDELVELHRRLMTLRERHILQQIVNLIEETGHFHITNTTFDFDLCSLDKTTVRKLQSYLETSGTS
# Beta cell apopt: beta cell apoptosis inhibition. INS-1E cytokine-induced death, ATP luminescence, 48 h; percent of positive-control rescue, neutral wells zero. protection from apoptosis, % (test concentration not listed). 300,000 tested, 0.8% active;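 active = all replicates at 75% or more, or half of them and the mean; inconclusive = half reach 75% but not the mean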;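 also: 0% = cytokine-treated negative control wells and 100% = positive control rescue; higher means more ATP so stronger rescue from cytokine killing; wells of about 40 µL received 100 nL stock; the first replicate is given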
# Calb FLC: C. albicans growth modulation with fluconazole | C. albicans CaCi-2 (fluconazole-resistant clinical isolate) + fluconazole, Alamar Blue growth, 48 h | growth inhibition, % (test concentration not listed) | 300,000 tested, 0.57% active | AID 1979;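 active = most replicates above 75%; inconclusive = exactly half above 75%; inactive = most below 75%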;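 also: all wells also contain fluconazole at 8 µg/ml as a sub-toxic cotreatment; 0% = median of DMSO wells and 100% = median of geldanamycin control wells; wells of about 8 µL received 7.5 nL stock; the first replicate is given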
# rRNA inh HTS: inhibitors of bacterial rRNA selective over humanized ribosomes. E. coli WT GFP vs humanized-ribosome RFP mutants, fluorescence, 24 h; stronger effect = lower value; DMSO median 0, no signal -100. GFP signal change (wild-type ribosome), % (test concentration not listed). 350,000 tested, 1.6% active;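 active = significant combined selectivity score with lowered wild-type GFP, culture density cut under 30%, mutant RFP and density less affected; inactive = any of these conditions unmet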; also: one replicate is shown; some compounds called inactive have numbers as strong as hits
# rRNA inh HTS OD600: further read-out of rRNA inh HTS, marked with its call; OD600 change, %; measured here: OD600 growth;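 optical density of the mix in the first replicate; 0 = DMSO median and -100 = no signal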
# rRNA inh HTS RFP: second read-out of rRNA inh HTS, no call of its own (marks repeat the call); RFP signal change, %; measured here: RFP humanized mutant strains;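 first replicate; 0 = DMSO median and -100 = no signal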
# * = called active by the depositor; i = inactive; u = inconclusive; x = no result given.
SMILES,ALR inh,RanGTP-Impb inh,FGF22 binding,T cruzi repl,MLL AF4-AF9 inh,Beta cell apopt,Calb FLC,rRNA inh HTS,rRNA inh HTS OD600,rRNA inh HTS RFP
Cc1ccc2cc(CN(Cc3nnnn3Cc3ccco3)CC3CCCO3)c(=O)[nH]c2c1C (stereo not given),-1,-0.5,x,16,x,0,-2,x,x,x
CCCSc1cc(N2CCN(C)CC2)nc(-c2ccc(OC)cc2)n1,-15,4.0,x,22,x,18,-35,x,x,x
Nc1ccc(-c2c3ccc(=O)cc-3oc3cc(O)ccc23)cc1C(=O)O,x,i,i,12,7.4,x,-6,88,18,4.3
CCOc1cc(C(=O)Nc2ccc(S(=O)(=O)N3CCCCC3)cc2)ccc1OCC(=O)N1CCOCC1,x,-3.4,i,7,3.7,3,-2,3,12,-3.4
CC(=O)c1ccc(S(=O)(=O)N2CCc3ccccc3C2)cc1,x,0.6,i,17,3.0,-4,2,4,6,-0.7
COc1ccc(CNC(=O)CN2C(=O)COc3ccc(S(=O)(=O)N4CCOCC4)cc32)cc1,-4,-0.7,i,-2,1.3,-6,-3,13,7,1.9
OCCNCC1(O)C2CC3CC(C2)CC1C3 (stereo not given),-13,5.8,x,4,x,-3,-7,x,x,x
Cc1cc(C(=O)NNC(=O)CCN2CCN(c3ccccc3)CC2)c2ccccc2n1,98*,0.2,i,-7,2.1,-4,-1,9,-5,0.6
CCOc1ccc(NC(=O)C2CCN(C(=O)NCc3ccccc3)CC2)cc1,-2,-3.2,x,-7,x,6,-6,x,x,x
CC(C(=O)N1CCC(C(N)=O)CC1)N(c1ccc(Oc2ccccc2)cc1)S(C)(=O)=O (stereo not given),-6,0.0,x,-11,x,-3,0,x,x,x
CN(C(=O)COC(=O)c1ccccc1Nc1ccccc1)c1c(N)n(Cc2ccccc2)c(=O)[nH]c1=O,72,5.4,i,6,-37,5,-1,3,12,-1.3
CSc1sc(-c2ccnc(SCCS(C)(=O)=O)n2)c(-c2ccccc2)c1C#N,-24,-0.9,i,42,-4.2,8,-6,16,0,2.7
COc1ccc(NC(=O)COC(=O)Cc2ccc(-c3ccccc3)cc2)c(OC)c1,x,-0.2,x,-13,x,-6,8,x,x,x
CCN(CC)S(=O)(=O)c1cccc(C(=O)Nc2ccccc2C(=O)N2CCOCC2)c1,-6,2.7,x,3,x,4,-4,8,2,-2.1
O=C(N/N=C/c1ccc(O)cc1)c1ccncc1,99*,2.8,i,20,-1.3,0,5,8,7,2.2
CCCCC(=O)N1CCN(c2nc3ccc(Br)cc3s2)CC1,-4,5.1,i,-11,-2.4,x,0,-20*,-2.2*,-2.7*
CCN(CC)c1ccc(S(=O)(=O)N2CCOCC2)cc1NC(=O)CSc1ccccc1,-7,11,i,-7,-2.4,0,18,-16,-22,1.1
O=C(CSc1nc(-c2ccccc2)cc(C(F)(F)F)n1)NCc1cccs1,-7,7.6,x,-3,x,-3,21,x,x,x
CCOC(=O)c1cc(C(C)(C)C)oc1CN,-13,0.1,x,-3,x,0,u,x,x,x
CCC(C)(NC(=O)c1ccccc1)C(=O)O (stereo not given),4,-0.7,x,-22,x,-5,-11,x,x,x
CN1CCS/C1=C\C=C1/SC(=S)N(CC(=O)O)C1=O,x,-7.1,i,8,-5.7,x,0,25,8,11
Cc1ccc(NC(=O)NC2CC(=O)N(c3ccc4c(c3)OCCO4)C2)cc1C (stereo not given),-6,6.0,i,2,-1.0,-10,-12,-10,-9,-5.8
COc1ccc(OC)c(CN2CCN(C(=O)c3cc4ccccc4cc3O)CC2)c1,-16,4.8,i,9,6.7,-3,0,-20,-13,4.4
Oc1ccc(/C=N/n2c(COc3ccccc3)n[nH]c2=S)cc1O,100*,-1.0,i,1,-10,1,77*,-4,-9,6.7
COCC1CCN(C(=O)c2cc(COc3cccc4cnccc34)on2)CC1,-9,1.5,i,5,0.2,28,-4,-17,-11,-1.0

# Next section
SMILES,ALR inh,RanGTP-Impb inh,FGF22 binding,T cruzi repl,MLL AF4-AF9 inh,Beta cell apopt,Calb FLC,rRNA inh HTS,rRNA inh HTS OD600,rRNA inh HTS RFP
CCOC(=O)N1CCN(C(=O)CNC(=O)c2ccccc2F)CC1,-3,x,i,x,-2.3,-3,x,3,10,0.1
CC(C)CCNc1nc(N)c([N+](=O)[O-])c(N2CCCCCC2)n1,-6,-3.5,i,14,0.2,26,-9,-17,-18,-5.7
COc1ccc(C2CC(=O)C=C(NNS(=O)(=O)c3ccc(C)cc3)C2)cc1 (stereo not given),x,-4.8,i,-11,-0.1,-1,-1,-1,1,-4.6
COc1cccc(NC(=O)CN2CCN(c3ccc(F)cc3)CC2)c1,97*,-4.0,x,9,x,-7,2,x,x,x
O=C(O)CCC(=O)N1N=C(c2c(-c3ccccc3)c3cc(Cl)ccc3[nH]c2=O)CC1c1ccccc1 (stereo not given),-1,-2.8,x,0,5.0,-2,18,7,2,-1.3
CCCCS(=O)(=O)N1CCCC(C(=O)Oc2ccc(Cl)cc2)C1 (stereo not given),0,5.7,i,-4,3.5,-4,-5,8,1,0.6
COc1cc(NC(=O)CSCC(=O)Nc2cccc(C(F)(F)F)c2)c(Cl)cc1Cl,-10,2.3,i,-10,-8.4,-5,-6,-31*,-21*,8.7*
Cn1cc2cc([N+](=O)[O-])ccc2n1,-49,-0.2,x,-6,-0.3,-10,0,12,4,-4.4
O=C(COc1ccccc1)N/N=C/c1sc(=O)n(Cc2cccc(C(=O)O)c2)c1Cl,96*,-0.8,i,-3,2.7,-1,9,11,1,5.8
Cn1cccc1Cc1nnc(SCC(=O)Nc2nccs2)n1CCc1ccccc1,11,u,i,5,5.8,-7,2,1,-2,4.2
COC(=O)CNC(=O)Cn1ccc2ccccc2c1=O,-14,2.3,x,-6,x,-1,-19,x,x,x
COC(=O)C1(Cc2cc(-c3ccc(Cl)cc3)no2)CCN(C(=O)OC(C)(C)C)CC1,4,2.2,i,20,1.5,-10,-9,-1,-19,8.6
Cn1c(CNS(=O)(=O)c2ccc(Cl)cc2)n[nH]c1=S,26,0.5,x,-12,x,-5,-23,x,x,x
Cc1cc(NC(=O)c2ccc(F)cc2)ccc1NC(=O)c1ccco1,x,u,i,14,-0.9,-1,-11,-5,0,-1.9
O=C(Cn1nnc(-c2ccccc2NC(=O)c2ccccc2F)n1)NC1CCCC1,0,-0.9,i,15,-1.2,0,-5,-6,10,-0.7
Cc1ccc(NCC(=O)Nc2ccc(Br)cc2)cc1F,-8,3.0,i,-5,-8.1,1,1,-4,6,-0.2
COc1ccc(CCNC(=O)C2CCCN(Cc3nc(-c4ccccc4C)oc3C)C2)cc1OC (stereo not given),-7,0.0,x,46,x,-6,32,x,x,x
CCN1CC2([N+](=O)[O-])C=CC(=O)C([N+](=O)[O-])(C1)C2CC(=O)c1ccccc1 (stereo not given),-44,0.0,x,-5,x,-8,-9,x,x,x
CCOC(=O)/C=c1\s/c(=C(\C#N)C(=O)NC)n(-c2ccccc2)c1=O,-26,0.1,x,4,x,-1,1,x,x,x
O=C(CN1CCCCC1)NCCNc1ccc(C(F)(F)F)cc1[N+](=O)[O-],x,-4.7,i,16,3.8,-4,u,-8,-6,3.6
O=C(NCCN1CCCCC1)Nc1ccc(F)c(Cl)c1,1,u,x,-18,x,-1,-4,x,x,x
O=C(O)CCC(=O)N1N=C(c2ccccc2)CC1c1ccc2nccnc2c1 (stereo not given),18,-2.7,i,0,1.7,3,4,6,1,10
COc1c2occc2c(OC)c2c(=O)cc(C(F)(F)C(F)(F)F)oc12,-12,1.8,i,-4,0.2,1,-3,1,3,2.5
Cn1c(=O)[nH]c(=O)c2[nH]c(CN3CCN(C(=O)c4ccco4)CC3)nc21,-12,0.2,x,-11,x,-6,-1,x,x,x
CCc1nnc(NC(=O)CSc2ccc(-c3ccc(F)cc3)nn2)s1,40,u,x,3,x,3,1,x,x,x

# Grouped by structure, the compounds so far with a cyano group.
SMILES,ALR inh,RanGTP-Impb inh,FGF22 binding,T cruzi repl,MLL AF4-AF9 inh,Beta cell apopt,Calb FLC,rRNA inh HTS,rRNA inh HTS OD600,rRNA inh HTS RFP
CSc1sc(-c2ccnc(SCCS(C)(=O)=O)n2)c(-c2ccccc2)c1C#N,-24,-0.9,i,42,-4.2,8,-6,16,0,2.7
CCOC(=O)/C=c1\s/c(=C(\C#N)C(=O)NC)n(-c2ccccc2)c1=O,-26,0.1,x,4,x,-1,1,x,x,x

# (more compounds)
SMILES,ALR inh,RanGTP-Impb inh,FGF22 binding,T cruzi repl,MLL AF4-AF9 inh,Beta cell apopt,Calb FLC,rRNA inh HTS,rRNA inh HTS OD600,rRNA inh HTS RFP
COc1ccc(CN2C(=NC(=O)C3CC3)SC3CS(=O)(=O)CC32)cc1OC (stereo not given),2,-0.7,i,8,-6.1,-6,-1,1,3,1.8
O=C(CN1C(=O)NC2(CCCCC2)C1=O)N1CCN(c2ncccn2)CC1,0,x,i,x,0.1,-1,x,7,14,-1.1
O=C(CSc1nc(-c2ccccc2)cc(C(F)(F)F)n1)NCc1ccco1,-16,1.9,i,11,2.8,-6,2,14,9,-2.6
O=C(COC(=O)c1ccc(Br)cc1)NC(=O)NCc1ccccc1,-1,x,i,x,1.1,1,x,0,-4,-4.9
O=C(COC(=O)c1ccc(S(=O)(=O)N2CCc3ccccc3C2)cc1)NC1CCS(=O)(=O)C1 (stereo not given),-4,1.8,i,-7,-2.5,1,-6,2,1,-0.4
CCN1CCN(C(=O)c2[nH]c3ccc(OC)cc3c2C)CC1,-20,3.0,i,-6,1.5,-3,4,8,7,0.1
CC1CCN(CCOc2cc(Cl)ccc2Cl)CC1,4,-0.9,i,-21,7.9,-5,-22,10,4,-7.2
Cc1ccccc1Nc1nc(N)nc(CSc2nncn2C)n1,4,-2.5,i,14,1.5,-2,-18,5,12,-0.7
CN(C(=O)CCN1C(=O)/C(=C/c2ccccc2F)SC1=S)C1CCS(=O)(=O)C1 (stereo not given),1,1.1,i,3,-15,x,0,5,19,1.6
CN(C)S(=O)(=O)c1cc(NC(=O)CNCc2ccc(F)cc2)ccc1Cl,x,-2.1,i,-17,3.3,-8,-3,-9,-15,-1.8
Brc1ccc2ncc(Br)cc2c1,-6,3.5,x,-20,x,-7,-4,x,x,x
CC(C)N1C(=O)C2(OCCCO2)c2cc(Br)ccc21,-12,u,i,4,0.1,-11,4,5,2,1.7
Cc1cccnc1NC(=O)C1CCN(S(=O)(=O)c2ccc3c(c2)CCC(=O)N3)CC1,90*,4.6,i,-11,3.3,-3,0,4,-1,8.0
COc1ccc2c(c1)[C@H]1[C@H](CO2)[C@H](c2ccccc2)[C@]2(C)C(=O)Nc3ccccc3C(=O)N12,0,x,i,x,5.8,-10,x,-2,-11,-4.9
CCN(CC(=O)NCCN1CCOCC1)S(=O)(=O)c1ccc(F)cc1,1,-0.8,i,-7,-3.2,x,-2,1,3,0.6
C=C(C)CNC(=S)N/N=C/c1ccc(N2CCOCC2)cc1,u,6.7,i,-16,3.8,7,-15,-2,0,-1.6
O=C1C2Sc3[nH]c(=O)sc3C(c3ccccc3)C2C(=O)N1c1ccccc1 (stereo not given),25,1.0,x,-7,x,1,u,x,x,x

# This is a subset (hit frequency here may not be typical).
